RecA intein inh: Mtb RecA intein splicing inhibition; cell-free RecA intein splicing, fluorescence; inhibition, %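 (about 9 µM by stock and volumes)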; hit rate 0.75% among 290,000; in the data active = inhibition above about 30%; inconclusive = no clear call, values can overlap the other calls;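 note: 0% = vehicle wells and 100% = reference inhibitor control wells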
Target sequence (P9WHJ3 whole entry, looked up): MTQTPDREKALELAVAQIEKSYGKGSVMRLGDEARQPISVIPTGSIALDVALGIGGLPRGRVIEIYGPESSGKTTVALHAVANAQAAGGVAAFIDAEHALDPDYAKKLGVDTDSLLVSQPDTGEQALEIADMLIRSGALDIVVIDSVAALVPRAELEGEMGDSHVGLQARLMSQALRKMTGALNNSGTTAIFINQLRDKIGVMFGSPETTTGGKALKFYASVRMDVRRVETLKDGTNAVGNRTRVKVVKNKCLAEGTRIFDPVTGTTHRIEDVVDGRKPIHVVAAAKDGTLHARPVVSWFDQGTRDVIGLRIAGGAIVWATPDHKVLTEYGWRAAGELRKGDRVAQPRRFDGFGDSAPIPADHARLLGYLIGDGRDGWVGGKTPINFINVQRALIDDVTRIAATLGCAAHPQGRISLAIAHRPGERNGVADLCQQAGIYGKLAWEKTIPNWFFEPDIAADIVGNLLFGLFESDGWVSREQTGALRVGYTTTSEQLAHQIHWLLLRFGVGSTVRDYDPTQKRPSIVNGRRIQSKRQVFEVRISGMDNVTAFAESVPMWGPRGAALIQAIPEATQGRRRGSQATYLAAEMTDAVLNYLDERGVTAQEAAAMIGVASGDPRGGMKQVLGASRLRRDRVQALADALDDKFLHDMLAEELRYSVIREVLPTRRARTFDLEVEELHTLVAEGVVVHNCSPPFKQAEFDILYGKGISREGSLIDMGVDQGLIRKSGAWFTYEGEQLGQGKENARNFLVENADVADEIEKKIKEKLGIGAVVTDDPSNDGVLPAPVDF
Arbovirus inh: blocks arbovirus infection | arbovirus infection cell-based antiviral screen | inhibition, % at 10 µM | hit rate 0.37% among 200,000;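 active = inhibition from about 30%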;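 note: bluetongue infection of BSR cells; cell survival read as ATP light after 72 h; 0% = infected wells without compound and 100% = uninfected wells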
Mtb bLac sens: beta-lactam sensitization of Mtb H37Rv | M. tuberculosis H37Rv growth with meropenem, percent inhibition; hits of this screen are not shown here | inhibition, % at 25 µM | hit rate 0.27% among 330,000 | AID 434955;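 active = about 74% or more and at least 40 points above the plate without the antibiotic, then above 30% in a dose series; inconclusive = first-round hits that could not be retested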;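 note: growth measured after seven days incubation then overnight dye step; 0% = bacteria only wells and 100% = bacteria with antibiotic; twin plates without the antibiotic show which effects depend on it; some results filed as inactive read as strong as hits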
YopH inh: inhibitors of Yersinia enterocolitica YopH tyrosine phosphatase; fluorescence Ex485/Em525; inhibition, %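 (about 10 µM by stock and volumes)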; hit rate 0.16% among 140,000; AID 898;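 active = inhibition of 50% or more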;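 note: controls were vehicle for no effect and minimum signal wells for full effect; inactives centre near -20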
Mtb H37Rv: M. tuberculosis H37Rv growth inhibitors, H37Rv strain (AID 1626); one-dose inhibition, % at 10 µM; IC50 in µM for titrated hits; M. tuberculosis H37Rv growth inhibition; higher % means a stronger effect; hit rate 0.95% among 220,000;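 active = confirmed in a dose series; inconclusive = inhibition above 80% but not taken into the dose series; inactive = below 80% or under 30% at every dose of the series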;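 note: bacteria incubated seven days before Alamar blue readout; 0% = bacteria only wells and 100% = bacteria with antibiotic wells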
Arbovirus inh repeat: further read-out of Arbovirus inh, marked with its call; inhibition, %; measured here: 10K subset replicate screen; many hits read low in the repeat;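 first of two repeat runs on a subset; 0% = infected and 100% = uninfected wells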
Active calls of the source: *. This is a subset; the hit share may differ from the screen's.

How did CNc1ccccc1C(=O)OCC(=O)N1CCN(c2ccc(OC)cc2)CC1 do in these assays?
RecA intein inh: -9.3; Mtb bLac sens: 2

What do the screens show for `Cc1cc(C)n(-c2nc(NCCCN(C)C)c3c4c(sc3n2)CCCC4)n1`?
RecA intein inh: -0.2; Mtb bLac sens: 14; Mtb H37Rv: 17%

Results for CCOC(=O)N1CCN(CC(O)COCc2cc(OC)c(OC)c(OC)c2)CC1 (configuration not stated) ?
RecA intein inh: -1.2; Arbovirus inh: 17; Mtb bLac sens: 3; YopH inh: -20; Mtb H37Rv: 4%

Results for O=S(=O)(Cc1ccccc1)N1CCN(c2ncccn2)CC1 ?
RecA intein inh: -2.2; Mtb bLac sens: -7

How did CC1(C)CC(=O)N(CC(=O)O)c2ccccc2S1(=O)=O do in these assays?
RecA intein inh: -1.7; Arbovirus inh: 3; Mtb bLac sens: -3; YopH inh: -31; Mtb H37Rv: -3%; Arbovirus inh repeat: 7

Results for CSc1oc(-c2ccco2)nc1S(=O)(=O)c1ccccc1 ?
RecA intein inh: -2.7; Arbovirus inh: -8; Mtb bLac sens: 0; YopH inh: -13; Mtb H37Rv: 2%

What do the screens show for `Cc1ccc2nc(SCC(=O)O)nc(C)c2c1`?
RecA intein inh: -0.4; Arbovirus inh: -1; Mtb bLac sens: 5; YopH inh: -8; Mtb H37Rv: -9%

How did Cc1cc(C)c(NC(=O)CNC(=O)CSc2nnc(N)s2)c(C)c1 do in these assays?
RecA intein inh: 0.6; Mtb bLac sens: -4

What do the screens show for `Cc1cc2cc(C)c(NCCNC(=O)c3cccc(F)c3)nc2cc1C`?
RecA intein inh: 0.5; Arbovirus inh: -18; Mtb bLac sens: 53; Mtb H37Rv: 77%

How did COc1ccc2oc3cc(C)[n+]([O-])c(-c4ccc(Br)cc4)c3c2c1 do in these assays?
RecA intein inh: -1.0; Arbovirus inh: 25; Mtb bLac sens: 8; YopH inh: -1; Mtb H37Rv: 6%

Results for O=C(CSc1nc2ccccc2c(=O)n1CC1CCCO1)NCCc1ccccc1 (configuration not stated) ?
RecA intein inh: -7.8; Mtb bLac sens: -4

Results for O=C(CCNC(=O)c1ccc(Br)o1)NCc1ccccn1 ?
RecA intein inh: -2.1; Arbovirus inh: 6; Mtb bLac sens: -8; YopH inh: -43; Mtb H37Rv: -3%

How did O=C(CCC(=O)N1CCN(S(=O)(=O)c2ccc3ccccc3c2)CC1)NCC(F)(F)F do in these assays?
RecA intein inh: 1.8; Mtb bLac sens: 2

Results for COc1ccc(C(C(=O)NC2CCCC2)N(C(=O)c2csnn2)C2CCCC2)cc1 (configuration not stated) ?
RecA intein inh: -2.6; Mtb bLac sens: 3

How did COc1c(C(=O)NC(=S)Nc2nnn(C)n2)cc2ccccc2c1Br do in these assays?
RecA intein inh: 1.8; Mtb bLac sens: 11

How did CCOc1cc(NC(=S)NC)c(OCC)cc1NC(=O)c1ccc(OC)cc1 do in these assays?
RecA intein inh: -1.2; Arbovirus inh: -15; Mtb bLac sens: -4; Mtb H37Rv: -1%

Results for COc1ccc(CN(Cc2ccc(OC)cc2)C(=O)c2cccs2)cc1 ?
RecA intein inh: 16; Mtb bLac sens: -8; Mtb H37Rv: 5%

What do the screens show for `COc1ccc(NC2CC(=O)N(c3ccccc3)C2=O)cc1` (configuration not stated)?
RecA intein inh: -5.4; Arbovirus inh: -5; Mtb bLac sens: 78; YopH inh: -21; Mtb H37Rv: 68%

Results for Cc1ccc(C2CC(c3cccs3)=NN2C(=O)CSc2nc3ccccc3o2)cc1 (configuration not stated) ?
RecA intein inh: -1.1; Arbovirus inh: -1; Mtb bLac sens: 45; YopH inh: -8; Mtb H37Rv: 4%

Results for CN1C(=O)C(C)(C)c2cc(S(=O)(=O)N3CCN(c4ccccc4)CC3)ccc21 ?
RecA intein inh: -0.3; Mtb bLac sens: 0

How did Cc1ccccc1NC(=O)NCCc1nc2ccccc2[nH]1 do in these assays?
RecA intein inh: 0.8; Arbovirus inh: 15; Mtb bLac sens: 1; YopH inh: 3; Mtb H37Rv: 3%

How did COc1ccc(-n2nc(C(=O)NCC(=O)N3CCN(c4ccccc4OC)CC3)c3ccccc3c2=O)cc1OC do in these assays?
RecA intein inh: 9.8; Mtb bLac sens: 12

Results for COC(=O)c1sccc1NC(=O)c1cc(-c2ccc(C)cc2C)nc2ccccc12 ?
RecA intein inh: -4.6; Arbovirus inh: 6; Mtb bLac sens: 0; YopH inh: -21; Mtb H37Rv: 16%

How did CCCC(=O)Nc1sc(C)c(C)c1C(=O)Nc1cccc(C)c1 do in these assays?
RecA intein inh: -0.3; Arbovirus inh: -3; Mtb bLac sens: 20; YopH inh: -48; Mtb H37Rv: 9%

What do the screens show for `CCN1C(=O)/C(=c2\sc3nc(=O)c(Cc4ccccc4)nn3c2=O)c2ccccc21`?
RecA intein inh: 1.5; Mtb bLac sens: 4; Mtb H37Rv: 4%

What do the screens show for `O=C(CCc1n[nH]c(=O)[nH]c1=O)N1CCCCC1`?
RecA intein inh: 1.3; Arbovirus inh: 15; Mtb bLac sens: -3; YopH inh: -33; Mtb H37Rv: -1%

What do the screens show for `CCCn1nc(NS(=O)(=O)c2cccc3nonc23)c2cc3ccccc3nc21`?
RecA intein inh: 0.1; Mtb bLac sens: -4

How did COc1cccc(C2c3[nH]c4ccccc4c3C[C@H]3C(=O)N(CCCCCO)CC(=O)N23)c1 (some centres not stated) do in these assays?
RecA intein inh: 3.3; Mtb bLac sens: 8

What do the screens show for `CCOC(=O)c1c(C)n(CCNC(C)=O)c2ccc(O)cc12`?
RecA intein inh: -2.8; Arbovirus inh: 2; Mtb bLac sens: 8; YopH inh: 0; Mtb H37Rv: -7%

Results for O=C1NC(=Nc2ccccc2)S/C1=C\C=C\c1ccco1 ?
RecA intein inh: 12; Arbovirus inh: 15; Mtb bLac sens: 98; YopH inh: 0; Mtb H37Rv: 3%

What do the screens show for `COc1ccc(CNC(=O)c2cnc3scc(C)n3c2=O)cc1`?
RecA intein inh: -0.2; Arbovirus inh: 2; Mtb bLac sens: 3; YopH inh: -25; Mtb H37Rv: -11%; Arbovirus inh repeat: 1

Results for COc1cc2c(C(=O)N3CCN(Cc4ccc5c(c4)OCO5)CC3)cn(C)c(=O)c2cc1OC ?
RecA intein inh: 1.8; Arbovirus inh: 3; Mtb bLac sens: 0; YopH inh: -11; Arbovirus inh repeat: -3

What do the screens show for `O=S1(=O)CC/C(=N\Nc2ccc(F)cc2)c2ccsc21`?
RecA intein inh: -0.1; Arbovirus inh: -20; Mtb bLac sens: 82; Mtb H37Rv: inconclusive

How did O=C1CC(N2CCC(c3nc4ccccc4[nH]3)CC2)C(=O)N1c1ccccc1F (configuration not stated) do in these assays?
RecA intein inh: 2.3; Arbovirus inh: 0; Mtb bLac sens: 2; Mtb H37Rv: 8%

Results for CCn1c2ccccc2c2nnc(SCCCn3c(=O)[nH]c4ccccc43)nc21 ?
Arbovirus inh: 7; Mtb bLac sens: 0; YopH inh: -53; Mtb H37Rv: -7%

Results for COC(CNC(=O)c1ccc2c(c1)ncn2-c1ccc(C)cc1C)OC ?
RecA intein inh: -1.0; Mtb bLac sens: 1

Eight entries already listed, ordered by count of non-hydrogen atoms, descending:
Results for COc1cc2c(C(=O)N3CCN(Cc4ccc5c(c4)OCO5)CC3)cn(C)c(=O)c2cc1OC ?
RecA intein inh: 1.8; Arbovirus inh: 3; Mtb bLac sens: 0; YopH inh: -11; Arbovirus inh repeat: -3

How did COc1cccc(C2c3[nH]c4ccccc4c3C[C@H]3C(=O)N(CCCCCO)CC(=O)N23)c1 (some centres not stated) do in these assays?
RecA intein inh: 3.3; Mtb bLac sens: 8

What do the screens show for `CCN1C(=O)/C(=c2\sc3nc(=O)c(Cc4ccccc4)nn3c2=O)c2ccccc21`?
RecA intein inh: 1.5; Mtb bLac sens: 4; Mtb H37Rv: 4%

What do the screens show for `CCCn1nc(NS(=O)(=O)c2cccc3nonc23)c2cc3ccccc3nc21`?
RecA intein inh: 0.1; Mtb bLac sens: -4

Results for COC(CNC(=O)c1ccc2c(c1)ncn2-c1ccc(C)cc1C)OC ?
RecA intein inh: -1.0; Mtb bLac sens: 1

What do the screens show for `COc1ccc(CNC(=O)c2cnc3scc(C)n3c2=O)cc1`?
RecA intein inh: -0.2; Arbovirus inh: 2; Mtb bLac sens: 3; YopH inh: -25; Mtb H37Rv: -11%; Arbovirus inh repeat: 1

What do the screens show for `CCOC(=O)c1c(C)n(CCNC(C)=O)c2ccc(O)cc12`?
RecA intein inh: -2.8; Arbovirus inh: 2; Mtb bLac sens: 8; YopH inh: 0; Mtb H37Rv: -7%

What do the screens show for `O=C(CCc1n[nH]c(=O)[nH]c1=O)N1CCCCC1`?
RecA intein inh: 1.3; Arbovirus inh: 15; Mtb bLac sens: -3; YopH inh: -33; Mtb H37Rv: -1%

Carrying on:
How did Cc1ccccc1CN1C(=O)c2ccccc2S(=O)c2ccc(C(=O)NCCCN3CCOCC3)cc21 (configuration not stated) do in these assays?
RecA intein inh: 0.2; Mtb bLac sens: -2

How did COCCNC(=O)CN(C(=O)c1ccc(N2CCCC2)nc1)c1ccc(Cl)cc1 do in these assays?
RecA intein inh: 1.0; Mtb bLac sens: 3

Results for COc1ccccc1-c1c(C)nn2c(N3CCC4(CC3)OCCO4)cc(C)nc12 ?
RecA intein inh: -1.3; Arbovirus inh: 1; Mtb bLac sens: 2; YopH inh: 4; Mtb H37Rv: -7%

Results for Cn1c(C(=O)NCc2cccnc2)cc2sc(Cl)cc21 ?
RecA intein inh: 2.5; Arbovirus inh: 5; Mtb bLac sens: -2; YopH inh: -8; Mtb H37Rv: -8%

What do the screens show for `CCCc1nnc(NC(=O)CS(=O)(=O)c2ccccc2)s1`?
RecA intein inh: -2.0; Mtb bLac sens: -1

Results for O=C(CNC(=O)c1ccco1)OCC(=O)c1ccc(Cl)cc1 ?
RecA intein inh: 1.8; Arbovirus inh: 1; Mtb bLac sens: -4; Mtb H37Rv: 2%

Results for CCCN1Cc2cccc(C(=O)Nc3ccc(CC)cc3)c2C1=O ?
RecA intein inh: 0.4; Arbovirus inh: 1; Mtb bLac sens: -3; YopH inh: -5; Mtb H37Rv: 1%

Results for Oc1ccccc1NCC(O)Cn1ccc2ccccc21 (configuration not stated) ?
RecA intein inh: -2.7; Arbovirus inh: -6; Mtb bLac sens: 97; YopH inh: -14; Mtb H37Rv: 80%

Results for CN1CCC(N(C)C(=O)/C(C#N)=C/c2ccc(OC(F)F)cc2)CC1 ?
RecA intein inh: -15; Mtb H37Rv: 3%

What do the screens show for `COc1cc2c3nnc(-c4ccccc4)c-3cn(Cc3ccccc3F)c2cc1OC`?
RecA intein inh: -56; Arbovirus inh: -7; Mtb bLac sens: 12; Mtb H37Rv: 27%

Results for CCOC(=O)C1CCN(S(=O)(=O)c2cc3c(cc2C)NC(=O)CO3)CC1 ?
RecA intein inh: -0.8; Mtb bLac sens: -3

How did Cc1cc(=O)oc(C)c1C(=O)NCCCN1CCN(c2ccccc2F)CC1 do in these assays?
RecA intein inh: 0.3; Arbovirus inh: -2; Mtb bLac sens: -12; YopH inh: 0; Mtb H37Rv: 2%

Results for CC1(c2ccccc2)NC(=O)N(CC(=O)Nc2ccccc2C(=O)NC2CC2)C1=O (configuration not stated) ?
RecA intein inh: 3.2; Mtb bLac sens: -10

How did OCC[C@@H]1C[C@@H](O)[C@H](O)[C@@]2(OCc3ccccc32)O1 do in these assays?
RecA intein inh: -5.7; Mtb bLac sens: -7

Results for Cc1ccc(S(=O)(=O)N2CC3CCC2C3)cc1 (configuration not stated) ?
RecA intein inh: -0.5; Arbovirus inh: -9; Mtb bLac sens: 8; YopH inh: -40; Mtb H37Rv: -7%

Results for Cc1ccc(-n2nc3c(=O)n(CCCC(=O)NCc4ccco4)nc(C)c3c2C)cc1 ?
RecA intein inh: 2.4; Mtb bLac sens: 4

Results for COc1cccc(C(=O)NCCCN2CCN(CCCNC(=O)c3cccc(OC)c3)CC2)c1 ?
RecA intein inh: -5.2; Arbovirus inh: -11; Mtb bLac sens: 9; YopH inh: -14; Mtb H37Rv: 1%

How did Nc1nnc(SCC(=O)Nc2sc3c(c2C(=O)c2ccccc2)CCCC3)s1 do in these assays?
RecA intein inh: -0.1; Arbovirus inh: 9; Mtb bLac sens: 2; YopH inh: -37; Mtb H37Rv: 6%

Results for COc1cc2c(cc1OC)-c1nnc(-c3ccco3)n1C1(CCCC1)C2 ?
RecA intein inh: -0.5; Arbovirus inh: -5; Mtb bLac sens: 0; YopH inh: -29; Mtb H37Rv: -2%

How did Cc1cccc(NC(=S)NCCc2ccc(Cl)cc2)c1C do in these assays?
RecA intein inh: 5.1; Mtb bLac sens: 7

Results for CCCNC(=O)c1cc(-c2ccc(OC)cc2)n(CCCOC)c1C ?
RecA intein inh: -0.5; Arbovirus inh: 7; Mtb bLac sens: 6; YopH inh: -20; Mtb H37Rv: 3%
